High-throughput results (PubChem)
HPGD inh: blocks human HPGD enzyme activity | AID 894 | Potency, µM, for inactives: at the highest dose activity change, negative = inhibition, hits mostly inhibitors | 4.3% of 150,000 active | P15428 | purified HPGD, NADH fluorescence kinetic, PGE2 substrate; active = well fitted inhibition curve with a large enough effect (not every such curve was filed as active); inconclusive = small, poorly fitted or top-dose-only effect, or another doubt; inactive = no such curve, though single readings can be large or run the other way;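 note: top concentration of the series not given in the record; plate controls included wells without enzyme; inactives centre near -10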
Target sequence (P15428 whole entry, looked up): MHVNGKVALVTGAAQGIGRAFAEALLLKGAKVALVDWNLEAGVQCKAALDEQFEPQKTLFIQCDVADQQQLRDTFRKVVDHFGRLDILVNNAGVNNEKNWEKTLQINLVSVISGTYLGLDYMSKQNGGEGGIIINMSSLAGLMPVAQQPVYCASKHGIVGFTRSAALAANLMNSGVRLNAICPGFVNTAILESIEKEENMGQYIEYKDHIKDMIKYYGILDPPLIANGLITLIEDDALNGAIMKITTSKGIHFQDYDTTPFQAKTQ
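20 nM HPGD preincubated 15 min at room temperature with compound in 50 mM Tris-HCl pH 8, 0.01% Tween 20. Started with 1 mM NAD+ and 30 uM prostaglandin E2; NADH fluorescence (360/450 nm) read 5 times over 30-s intervals, last minus first.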
* hit, by the source's call; & = joins results of further samples. % is set by controls: 0 for no effect and ±100 for the full control effect; potency is the fitted concentration of half-maximal effect. An excerpt; the hit share may differ from the screen's.

How did CSc1ccccc1C(=O)NC1CCCCCC1 do in these assays?
HPGD inh: -10%

How did Cc1nn(-c2ccccc2)c(N)c1Sc1cccc([N+](=O)[O-])c1 do in these assays?
HPGD inh: 25µM*

Results for CCC/C=C(\CCC)C(NS(=O)(=O)CC12CCC(CC1=O)C2(C)C)c1ccc(C(=O)OC)cc1 (stereo unspecified) ?
HPGD inh: 22µM*

Results for CCOc1cccc(C(=O)Nc2ccccc2N2CCN(C(=O)C(C)C)CC2)c1 ?
HPGD inh: -6%

How did CCOC1OC(=O)C(Cl)=C1Nc1ccc(C)cc1C (stereo unspecified) do in these assays?
HPGD inh: 2%

Results for CN(C)Cc1nc2c(c(=O)[nH]1)C1(CCCCC1)Cc1ccccc1-2 ?
HPGD inh: -16%

How did CCOc1ccc(-n2c(-c3ccc(OC)cc3)c[n+]3c2CCCCC3)cc1 do in these assays?
HPGD inh: -7%

Results for CNC(=O)c1nnn(Cc2ccccc2)c1NC(=O)C(F)(F)F ?
HPGD inh: -9%

How did Cn1c(=O)[nH]c(=O)c2c1nc(N1CCCCC1)n2CCCSc1nc2ccccc2s1 do in these assays?
HPGD inh: 16µM*

Results for COc1ccccc1C(=O)NC(C)C(c1cccs1)N1CCN(C)CC1 (stereo unspecified) ?
HPGD inh: -7%

Results for CC(Oc1ccc(Cl)cc1Cl)C(=O)N(Cc1ccco1)C1CCS(=O)(=O)C1 (stereo unspecified) ?
HPGD inh: -4%

What do the screens show for `Cn1c(SCC(=O)Nc2ccc(N3CCOCC3)c(Cl)c2)nnc1C(O)c1ccccc1` (stereo unspecified)?
HPGD inh: -4%

What do the screens show for `Cc1ccc(S(=O)(=O)N2CCN(Cc3nc4sc5c(c4c(=O)[nH]3)CCCC5)CC2)cc1`?
HPGD inh: inconclusive

Results for Cc1c(NC(=O)CCC(=O)N2CCCCC2)c(=O)n(-c2ccccc2)n1C ?
HPGD inh: -20%

How did Cc1ccc(Cn2nnnc2CN2CCC(O)(c3ccccc3F)CC2)cc1 do in these assays?
HPGD inh: -10%

How did O=C(Nc1ccc(CN2CCOCC2)cc1)c1ccc(-c2cc(Cl)ccc2Cl)o1 do in these assays?
HPGD inh: inconclusive

How did COc1ccc2c(c1)cc1n2CCN=C1NN do in these assays?
HPGD inh: inconclusive

How did O=C(NCc1ccccc1)c1ccc(COCC(F)(F)F)o1 do in these assays?
HPGD inh: -4%

What do the screens show for `CCOc1ccc(S(=O)(=O)N2CCc3cc(OC)c(OC)cc3C2)cc1`?
HPGD inh: 2%

What do the screens show for `O=C(Nc1ncc2c(n1)-c1ccccc1OC2)c1ccc(Cl)cc1`?
HPGD inh: inconclusive

What do the screens show for `Cc1noc(C)c1C(=O)N1CCN(C(=O)c2sc3cc(Cl)ccc3c2Cl)CC1`?
HPGD inh: -10%

What do the screens show for `O=C(NNC(=O)C1CCN(Cc2cccc(F)c2)CC1)c1cccc(Cl)c1`?
HPGD inh: -9%

How did CCOC(=O)c1ccccc1NC(=O)Cn1cnc2c(oc3ccccc32)c1=O do in these assays?
HPGD inh: inconclusive

Results for Cc1cc(/C=N\NC(=O)CC(=O)NC2CCCCC2)c(C)n1-c1ccc(Cl)cc1 ?
HPGD inh: -18%

Results for CC(C)Cn1nnnc1S(=O)(=O)Cc1cccc(C#N)c1 ?
HPGD inh: -29%

How did Cc1cc(C)n(-c2cc(N3CCN(S(=O)(=O)c4ccc(Cl)cc4)CC3)ccc2[N+](=O)[O-])n1 do in these assays?
HPGD inh: -22%

What do the screens show for `COC(=O)c1ccc(C(NC(=O)OCc2ccccc2)/C(C)=C/[C@@H](C)C(=O)NC2CCCCC2)cc1` (stereo partly specified)?
HPGD inh: -19%

What do the screens show for `Cc1ccc(Cl)cc1N1CCN(C(=O)COc2ccc3c(c2)CCC3)CC1`?
HPGD inh: -12%

How did COc1ccccc1NC(=O)c1nnn(Cc2ccccc2)c1NC(=O)C(F)(F)F do in these assays?
HPGD inh: -5%

What do the screens show for `Cc1cc(Br)c(NC(=O)CCl)c(Br)c1`?
HPGD inh: -22%

Results for Cn1nc(C(=O)NC2CCCCCC2)ccc1=O ?
HPGD inh: -11%

What do the screens show for `CCOc1ccc(N(C(C)C(=O)NC(C)CC)S(C)(=O)=O)cc1` (stereo unspecified)?
HPGD inh: -4%

How did O=C(O)c1ccc(NCc2cccc(Br)c2)cc1 do in these assays?
HPGD inh: -7%

Results for O=C1NC2(CCCCCC2)Cc2ccccc21 ?
HPGD inh: -18%

Results for COc1ccc(/C=N/NC(=O)c2[nH]ncc2Br)c(OC)c1 ?
HPGD inh: -16%

How did Cc1ccccc1-c1nc(CS(=O)CC(=O)NCc2ccccc2)c(C)o1 (stereo unspecified) do in these assays?
HPGD inh: -13%

How did Fc1cccc(COc2ccccc2CNc2ccccc2)c1 do in these assays?
HPGD inh: -12%

Results for Cc1ccc2nc(NC(=O)C3CCN(S(=O)(=O)c4cccs4)CC3)sc2c1 ?
HPGD inh: -12%

Results for Cc1ccc(S(=O)(=O)C2CS(=O)(=O)CC2O)cc1 (stereo unspecified) ?
HPGD inh: -7%

How did CC(=O)c1cc(C#N)c(SCc2ccccc2C#N)nc1C do in these assays?
HPGD inh: -18%

How did CCC(C)[C@H](NC(=O)NC(C)C)C(=O)O (stereo partly specified) do in these assays?
HPGD inh: 1%

What do the screens show for `COc1ccc(C(=O)N2CCN(C3CCCCC3)CC2)c(OC)c1`?
HPGD inh: 1%

Results for Cc1nc2c(sc3nc4c(cc32)COC(C)(C)C4)c(=O)n1CC(=O)NCc1ccco1 ?
HPGD inh: inconclusive

How did Cn1c(=NC(=O)CSCC(=O)N2CCCCC2)sc2ccccc21 do in these assays?
HPGD inh: 22µM*

What do the screens show for `COc1ccc(C(=O)Nc2nc(N3C(=O)c4ccccc4C3=O)n(-c3ccccc3)n2)cc1`?
HPGD inh: -5%

Results for OCCCCCN=c1cc(-c2ccccc2)oc2ccc(Cl)cc12 ?
HPGD inh: -7%

What do the screens show for `COc1cc(/C=N/n2cnnc2)ccc1OCCOc1ccccc1`?
HPGD inh: -27%

Results for COCc1nnc(NC(=O)CC(c2ccccc2)c2ccccc2)s1 ?
HPGD inh: -18%

Fetched one by one from the entries so far (5):
What do the screens show for `COc1ccc(C(=O)N2CCN(C3CCCCC3)CC2)c(OC)c1`?
HPGD inh: 1%

Results for OCCCCCN=c1cc(-c2ccccc2)oc2ccc(Cl)cc12 ?
HPGD inh: -7%

Results for Cc1ccc2nc(NC(=O)C3CCN(S(=O)(=O)c4cccs4)CC3)sc2c1 ?
HPGD inh: -12%

What do the screens show for `COc1ccc(C(=O)Nc2nc(N3C(=O)c4ccccc4C3=O)n(-c3ccccc3)n2)cc1`?
HPGD inh: -5%

What do the screens show for `COc1cc(/C=N/n2cnnc2)ccc1OCCOc1ccccc1`?
HPGD inh: -27%

The list goes on:
What do the screens show for `CC(C)Cc1nnc(NC(=O)Cc2ccc([N+](=O)[O-])cc2)s1`?
HPGD inh: -3%

Results for COC(=O)c1c(NC(=O)c2ccccc2[N+](=O)[O-])sc2c1CC(C)(C)NC2(C)C ?
HPGD inh: -12%

How did COC(=O)c1cc(=O)n(-c2ccc(F)cc2)c(=Nc2ccc(F)cc2)s1 do in these assays?
HPGD inh: -6%

Results for CCOC(=O)C1=C(c2ccccc2)Nc2ncnn2C1c1ccc(OC)c(OC)c1OC (stereo unspecified) ?
HPGD inh: -5%

Results for CCn1c2ccccc2c2nnc(SCC(=O)N(C)C3CCS(=O)(=O)C3)nc21 (stereo unspecified) ?
HPGD inh: -19%

Results for Cc1c(C(=O)NCc2ccc3c(c2)OCO3)sc2nc(-c3ccc(F)cc3)cn12 ?
HPGD inh: -17%

Results for CC(Oc1ccc(Cl)cc1)C(=O)NCCN1C(=O)S/C(=C\c2cccnc2)C1=O (stereo unspecified) ?
HPGD inh: -8%

How did Cc1ccc(C2CC(=O)NC(SCc3ccccc3)=C2C#N)cc1 (stereo unspecified) do in these assays?
HPGD inh: -10%

What do the screens show for `O=C(Cn1nc(-c2ccccc2)ccc1=O)NCCN1CCN(Cc2ccccc2)CC1`?
HPGD inh: 0%

Results for COc1ccc2oc(=O)c(C(=O)O)cc2c1 ?
HPGD inh: inconclusive

Results for Cc1n[nH]c(=O)nc1NCc1ccc(Cl)cc1 ?
HPGD inh: -24%

How did CS(=O)(=O)N1CCN(c2ccccc2NC(=O)c2cccnc2)CC1 do in these assays?
HPGD inh: -7%

Sorted by SMILES length (lowest first): 6 of the compounds above.
What do the screens show for `Cc1cc(Br)c(NC(=O)CCl)c(Br)c1`?
HPGD inh: -22%

Results for OCCCCCN=c1cc(-c2ccccc2)oc2ccc(Cl)cc12 ?
HPGD inh: -7%

What do the screens show for `O=C(Cn1nc(-c2ccccc2)ccc1=O)NCCN1CCN(Cc2ccccc2)CC1`?
HPGD inh: 0%

Results for Cc1c(C(=O)NCc2ccc3c(c2)OCO3)sc2nc(-c3ccc(F)cc3)cn12 ?
HPGD inh: -17%

Results for CCC/C=C(\CCC)C(NS(=O)(=O)CC12CCC(CC1=O)C2(C)C)c1ccc(C(=O)OC)cc1 (stereo unspecified) ?
HPGD inh: 22µM*

What do the screens show for `COC(=O)c1ccc(C(NC(=O)OCc2ccccc2)/C(C)=C/[C@@H](C)C(=O)NC2CCCCC2)cc1` (stereo partly specified)?
HPGD inh: -19%

More results follow:
Results for CCCOc1nnnn1-c1ccccc1 ?
HPGD inh: -6%

How did Cn1c(-c2ccc(CN3CCCCC3)o2)nc2ccccc21 do in these assays?
HPGD inh: inconclusive

How did Cc1oc(-c2ccc(Cl)cc2)cc1-c1nn2c(-c3ccoc3C)nnc2s1 do in these assays?
HPGD inh: 25µM*

How did CC(C)[C@@H](CC(=O)N[C@@H]1CCNC[C@H]1C(=O)N[C@H](CC(=O)N[C@@H](CCC(=O)O)CC(=O)O)Cc1c[nH]c2ccccc12)NC(=O)C[C@H](CO)NC(=O)[C@@H]1CNCC[C@H]1N do in these assays?
HPGD inh: -6%

What do the screens show for `CC(=O)N1CC=CC1(C)C(=O)NCc1cc(F)cc(C(F)(F)F)c1` (stereo unspecified)?
HPGD inh: -13%&-5%

What do the screens show for `Cc1ccc(SCC(=O)NCCN2C(=O)CSC2=O)cc1C`?
HPGD inh: -10%

What do the screens show for `O=c1c(Cc2ccc(F)cc2)c(O)ccn1C1CC1`?
HPGD inh: -13%

How did CCN(CC)C(C(=O)Nc1ccc2c(c1)OCO2)c1ccccc1 (stereo unspecified) do in these assays?
HPGD inh: -7%

How did CC(=O)Nc1cc2c(cc1NC(=O)Cn1nc(-c3ccc4c(c3)OCCO4)ccc1=O)OCCO2 do in these assays?
HPGD inh: -6%

Results for COC(=O)CCCC1=CC2=CC(=O)C(C)(OC(=O)C3CCCC3)C(=O)C2=CO1 (stereo unspecified) ?
HPGD inh: -7%

What do the screens show for `Nc1c(-c2cccs2)cnn1-c1nc(-c2ccc(Cl)cc2Cl)cs1`?
HPGD inh: -16%

How did O=C(CSc1nnnn1Cc1ccccc1)Nc1ccc2c(c1)OCO2 do in these assays?
HPGD inh: -22%

What do the screens show for `CCOC(=O)c1c(C)nc2ccc(C)cn12`?
HPGD inh: -6%

Results for CCCC(=O)NC1=C(C#N)C2(CCCC2)Cc2ccccc21 ?
HPGD inh: -11%

Results for O=C(Nc1cccc(F)c1)C1CCN(C(=O)c2ccc(Cl)cc2)CC1 ?
HPGD inh: 0%

How did CCCn1cc(NC(=O)C2CC(c3cccc(Br)c3)=NO2)cn1 (stereo unspecified) do in these assays?
HPGD inh: -8%

Results for Cc1cc(NC(=O)CSc2nc(C(C)C)nc3sc4c(c23)CCC(C)C4)no1 (stereo unspecified) ?
HPGD inh: -3%

Results for COC(=O)CSc1cc(C)nc(NC(C)=O)n1 ?
HPGD inh: -2%

How did CCn1ncc(/C=N\NC(=O)c2ccc3c(c2)c(C)c(C)n3Cc2ccccc2)c1C do in these assays?
HPGD inh: inconclusive

Results for Cc1nnc(N2CCN(c3ccccc3)CC2)[nH]c1=O ?
HPGD inh: -9%

How did O=C(Nc1ccc2c(c1)OCCO2)C1CCCN(S(=O)(=O)c2cnc[nH]2)C1 (stereo unspecified) do in these assays?
HPGD inh: -1%

Results for CCN(C(=S)Nc1cccc(C)c1)c1ccccc1 ?
HPGD inh: -14%

What do the screens show for `Cc1nn(C)c(C(=O)NNC(=S)Nc2ccc(F)cc2)c1[N+](=O)[O-]`?
HPGD inh: -13%

Results for CCOC(=O)C1=C(C)NC(=O)NC1c1cccc(OC)c1OCc1ccccc1Cl (stereo unspecified) ?
HPGD inh: 0%

Results for Cc1ccc(C)c(NS(=O)(=O)c2ccc3c(c2)Cc2cc(S(=O)(=O)Nc4cc(C)ccc4C)ccc2-3)c1 ?
HPGD inh: -8%

Results for O=S(=O)(c1ccc(C2CCCCC2)cc1)N1CCN(c2ncccn2)CC1 ?
HPGD inh: -5%

How did Cc1cccc(-c2nc(C#N)c(NC3CCCCC3)o2)c1 do in these assays?
HPGD inh: inconclusive

How did O=S(=O)(c1ccccc1)N1CCN(CC(O)COc2ccc3c(c2)CCC3)CC1 (stereo unspecified) do in these assays?
HPGD inh: -3%

Results for O=C(C1CC1)N1CCc2cc(Br)cc(S(=O)(=O)NCc3ccccn3)c21 ?
HPGD inh: -5%

What do the screens show for `O=C(CS(=O)(=O)c1c[nH]c2ccccc12)N1CCCc2ccccc21`?
HPGD inh: -5%

How did CCOc1ccc(NS(=O)(=O)c2cc(NC(=O)CCS(=O)(=O)c3ccc(C)cc3)ccc2OC)cc1 do in these assays?
HPGD inh: -3%

Results for Cc1cc(C=O)c(C)n1-c1ccc(N2CCCCC2)c([N+](=O)[O-])c1 ?
HPGD inh: -7%

Results for Cc1cccc(C)c1 ?
HPGD inh: -3%

Results for CN(Cc1cnn(C)c1)C(=O)c1sc2cccc(Cl)c2c1Cl ?
HPGD inh: 28µM*
